BJeLR viability – kills HRASV12-expressing BJeLR cells | inhibition, % (test concentration not listed) | AID 1554 | BJeLR (HRASV12) viability, CellTiter-Glo ATP luminescence, 48 h; reference of the scale not given here | 300,000 tested, 0.17% active;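 active means replicate mean above 50%; inconclusive means above 50% but judged a plate artefact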;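 further: 50 nL library stock added to about 25 µL; numbers are from one replicate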
Mtb hypoxia rep – inhibitors of hypoxia-regulated fluorescent reporter in Mycobacterium tuberculosis; M. tuberculosis hypoxia-regulated fluorescent reporter, fluorescence; fluorescence inhibition, % (no concentration beside the values); 300,000 tested, 0.1% active; AID 1159583;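 active means 35 to 45% if threefold the growth effect, above 45% if 1.5-fold the growth effect; inactive means the rest, general growth blockers included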;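 further: wells of about 50 µL received 100 nL stock; 0% = vehicle wells and 100% = reference inhibitor wells; whole bacteria with a GFP reporter of the hypoxia response; strong numbers were not always called active; many hits fall short of the cut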
Sa RN4220 lethal – kills Staphylococcus aureus RN4220; S. aureus RN4220 growth, OD600, 16 h; inhibition, % (concentration not given with the values); 330,000 tested, 0.33% active;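 active means z-score of -3 or lower and OD600 up to 0.18 on both plates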;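 further: plate controls were untreated cells for no effect and reference antibiotic for full effect; stock transfer was 100 nL into about 80 µL; one replicate is shown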
Sa ugtP lethal – kills S. aureus RN4220 lacking UgtP. S. aureus RN4220 ugtP deletion, OD600 growth, 16 h; some inactives read as strong as hits. growth inhibition, % (no concentration beside the values). 330,000 tested, 0.54% active;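 active means z-score under -3 and OD600 up to 0.15 on both plates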;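 further: plate controls were untreated wells for no effect and antibiotic for full effect; wells of about 80 µL received 100 nL stock; the first replicate is given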
Bead autofluor – counter-screen for toxin protease inhibitors: compound fluorescence; compound autofluorescence counterscreen, microsphere flow cytometry; hits give high values; fluorescence intensity (concentration not given with the values); 360,000 tested, 3.1% active;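 active means at least 3 SD above the mean of all compounds, about 16000 in these data; inconclusive means too few beads counted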;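 further: 100 nL of 1 mM stock went into each well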
PrP UTR inh – suppresses PrP 5' UTR mRNA reporter expression; cell-based PrP 5' UTR mRNA reporter, plate reader; inhibition, % (test concentration not listed); 340,000 tested, 0.35% active;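 active means every replicate at 50% or more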;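 further: 0 = median of the neutral control wells; tested in H4 reporter cells; numbers are from one replicate; inactives centre near -14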
Mtb hypoxia rep growth – recorded beside Mtb hypoxia rep, whose call it bears; growth inhibition, %; measured here: M. tuberculosis growth (absorbance);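 0% = vehicle and 100% = reference antibiotic; read after six days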
* hit, by the source's call; ? = inconclusive; . = no result given; & = joins results of further samples.

The line under a structure holds: BJeLR viability | Mtb hypoxia rep | Mtb hypoxia rep growth | Sa RN4220 lethal | Sa ugtP lethal | Bead autofluor | PrP UTR inh
Cc1c(O)cc2n(c1=O)-c1ccccc1C2(C)C
 : 2.3 | 4.6 | 7.6 | -6.7 | -2.7 | 2883 | -2.8
COC(=O)c1c2[n+](cc3cc(OC)c(OC)cc13)CCc1cc(OC)c(OC)cc1-2
 : 8.4 | 11.1 | 0.2 | 2.9 | 11.7 | 6103 | -6.6
COc1ccc(N(C)C(=O)c2cc3c(Cl)nc4ccccc4c3s2)cc1
 : 1.8 | 7.5 | 2.6 | 5.0 | 0.6 | 2088 | -9.6
CCCN1CCC(=NNC(=O)CSc2cc(C)c(Br)cc2C)CC1
 : 3.2 | 9.8 | 7.4 | 6.0 | 4.1 | 2997 | -22.2
Cc1cc(C)c(NC(=O)CCc2c(C)noc2C)c(C)c1
 : . | -7.5 | -2.1 | -0.6 | 2.7 | 5764 | -2.7
Cc1ccc(-c2ccc(/C=N\NC(=O)c3cc4c(ccc5ccccc54)o3)o2)cc1[N+](=O)[O-]
 : 0.2 | . | . | . | . | 3193 | -11.4
CSc1ccc(C(=O)C2CCCN(C(=O)Cn3cnnn3)C2)cc1 (centres undefined)
 : -4.6 | 4.4 | 2.4 | 2.6 | -3.4 | ? | -13.3
COc1ccc(N(C(=O)c2snc(C(N)=O)c2N)C(C(=O)NCc2ccc(F)cc2)c2ccc(C)o2)c(OC)c1 (centres undefined)
 : 6.6 | -1.4 | 2.1 | 5.5 | -1.8 | 3723 | -4.6
Cc1nc2ccccc2c(=O)n1NC(=O)c1ccccc1Cl
 : -2.2 | 4.0 | 13.1 | 7.4 | -9.3 | 12094 | 8.3
CC(CC(F)(F)F)N1CCC(n2nccc2NC(=O)CCOc2ccccc2)CC1 (centres undefined)
 : -6.0 | . | . | . | . | 5374 | -9.8
COc1ccc(OCCCC(=O)OCC(=O)Nc2ccc(Cl)cn2)cc1
 : -2.6 | -3.1 | -4.4 | 3.2 | 2.8 | 6865 | -7.3
Cc1c(NC(=O)C(C)Sc2n[nH]c(N)n2)c(=O)n(-c2ccccc2)n1C (centres undefined)
 : 1.7 | . | . | -1.4 | 12.3 | 2757 | 2.3
COC(=O)c1cc(OC)c(OC)cc1NC(=O)Cn1nnc(-c2ccccc2Cl)n1
 : 11.0 | 8.1 | 9.9 | 7.2 | -17.2 | 24177* | -13.2
Cc1cc(C)nc(NC2=NCC(=O)N2c2cccc(Cl)c2)n1
 : -10.4 | 5.3 | 6.9 | 2.9 | 3.7 | 4654 | -20.9
Cc1ccc(N2C(=O)NC(=O)/C(=C/c3ccoc3)C2=O)cc1
 : . | 1.4 | 7.0 | 2.7 | -0.7 | 4256 | -28.0
COc1ccc(OC)c(CCNC(=O)c2ccc(CS(=O)Cc3ccc(Cl)cc3)o2)c1 (centres undefined)
 : 2.6 | 4.3 | 12.2 | -0.9 | 7.0 | 5663 | -4.9
COc1cc(OC)c(OC)cc1/C=N/NC(=O)c1ccc(CSc2nc(C)cc(C)n2)cc1
 : -6.7 | . | . | . | . | 5497 | -13.8
Cc1ccc(CCNC(=O)C2CCCN(S(=O)(=O)c3c(C)nn(C)c3C)C2)cc1 (centres undefined)
 : 1.8 | . | . | 2.9 | -5.0 | 5977 | -16.1
CN=C1C([N+](=O)[O-])=CC=C2C1=NC1(CCCCC1)N2O
 : 7.3 | 9.7 | 12.7 | 3.4 | -7.0 | 2561 | -12.5
Cc1nn(C)c(Cl)c1CN1CCC(Oc2ccc(C(=O)N3CCCC3)cc2)CC1
 : 2.6 | 8.5 | 3.4 | 0.8 | 3.5 | 4780 | -16.9
CCOc1cc(C2C3=C(CCCC3=O)Nc3ccc4ncccc4c32)ccc1O (centres undefined)
 : -3.9 | 5.1 | 1.0 | 5.8 | 4.0 | 3338 | -6.8
CC(C)=CCN1CCN(Cc2nc(-c3ccc(F)cc3)cs2)CC1CCO (centres undefined)
 : 11.5 | 11.9 | 3.4 | 1.7 | -0.7 | 3497 | -12.3
Cc1ccc2cc(C#N)c(N3CCN(C)CC3)nc2c1
 : 0.0 | 1.0 | 1.9 | -9.0 | 4.3 | 2530 | -16.5
O=C(NNC(=O)c1cc(Br)c(Br)s1)c1ccncc1
 : . | 4.3 | 4.8 | 4.1 | 0.1 | 3473 | -18.3
O=c1oc(CCO)cc2ccc(C#Cc3ccsc3)cc12
 : . | 8.2 | 5.8 | 14.4 | 50.9 | 3537 | -76.2
Cc1ccccc1CNC(=O)/C=C\C(=O)O
 : -3.0 | 10.0 | 1.9 | 3.4 | 4.5 | 1953 | -0.7
Cc1ccnc(NC2OC(=O)c3ccccc32)c1 (centres undefined)
 : -9.7 | . | . | . | . | 2901 | -50.2
Cn1ccnc1C1CCCCN1C(=O)c1cc(COc2ccc(F)cc2Cl)on1 (centres undefined)
 : 0.3 | 0.5 | 15.1 | 0.9 | -3.6 | 4617 | -22.0
CCn1cc(/C=N\NC(=O)c2ccc(F)cc2)cn1
 : 2.4 | . | . | . | . | 2048 | -1.4
CC(=O)c1c(C)nn(-c2ccccc2)c1C
 : -5.8 | -2.2 | 14.9 | -1.3 | -1.2 | 4014 | -18.8

Further results follow.
The line under a structure holds: BJeLR viability | Mtb hypoxia rep | Mtb hypoxia rep growth | Sa RN4220 lethal | Sa ugtP lethal | Bead autofluor | PrP UTR inh
Nc1nc(-c2cccnc2)nn1C(=O)c1ccc(F)cc1
 : 0.8 | 13.5 | 10.7 | 3.0 | 3.7 | ? | -19.4
O=C(CN1C(=O)C2CC=CCC2C1=O)NCC1COc2ccccc2O1 (centres undefined)
 : -9.0 | 4.5 | 12.2 | -13.9 | -3.8 | 3326 | -11.2
COc1ccc(CCNC(=O)/C=C/c2ccc(S(=O)(=O)N3CCOCC3)cc2)cc1
 : . | 4.1 | 2.5 | 5.1 | -3.7 | 2936 | -1.1
O=C(COC(=O)C1=Cc2ccccc2OC1)NC1CCCC1
 : 2.1 | -1.0 | 6.5 | 10.0 | -3.5 | 9058 | -26.7
CCN(CC(=O)NCc1ccc(Cl)cc1)C(=O)c1sccc1C
 : . | 9.7 | 10.9 | 0.8 | 1.9 | . | .
CCN(CC)c1ccc(/C=N/NC(=O)C2CC2)cc1
 : 2.2 | . | . | . | . | 5156 | -37.1
O=C1OC(Nc2ccc(Cl)cn2)c2ccccc21 (centres undefined)
 : -1.7 | -2.0 | 10.9 | 20.6 | -17.6 | 3375 | -28.7
Cc1sc2ncnc(N/N=C/c3ccc(O)cc3)c2c1C
 : -1.7 | . | . | . | . | 10164 | -6.2
CC(C)(C)C(=O)COC(=O)c1cc2ccccc2cc1O
 : -0.1 | 11.9 | 11.4 | 7.5 | -8.9 | 5510 | -39.1
COc1cc(C2C(C#N)=C(N)Oc3cc(N)ccc32)cc(OC)c1OC (centres undefined)
 : . | . | . | -2.5 | -4.4 | 4523 | 67.4*
O=C(CN(C1CCCCC1)C1CCCCC1)N1CCc2ccccc2C1
 : -0.1 | 4.0 | 2.9 | -1.6 | 1.2 | 2416 | -6.7
O=C(c1cc(F)ccc1F)C1CCCN(C(=O)c2ccc3nccnc3c2)C1 (centres undefined)
 : 1.2 | -0.2 | 6.7 | 1.9 | 1.0 | 4786 | -39.8
Cc1ccc(CN2C(=O)C(Cc3ccccc3)Nc3ncnc(N4CCCCC4)c32)cc1 (centres undefined)
 : -13.7 | 3.3 | 15.6 | 5.4 | -1.8 | 3860&6261 | -21.4
O=C(NCC(=O)N1CCOCC1)c1ccccc1
 : -1.8 | 5.9 | -2.3 | 2.4 | 7.5 | 3072 | -39.2
O=C(NCc1ccco1)/C(=C/c1ccco1)NC(=O)c1ccccc1
 : 4.4 | 11.8 | 6.6 | -0.4 | 7.7 | 3491 | -21.2
O=C(NC1CCC(O)CC1)c1ccc(S(=O)(=O)NCc2ccco2)cc1 (centres undefined)
 : -10.9 | 11.1 | -0.9 | -10.5 | 0.6 | 3288 | -21.0
O=C(CCn1cnc(-c2ccccc2)c1-c1ccccc1)N/N=C/c1ccccc1O
 : -10.6 | . | . | . | . | 2587 | -15.5
CCO[C@@H]1OC(C(=O)O)=C[C@H](c2ccccc2)[C@H]1CCCO
 : -15.7 | . | . | . | . | 3257 | -21.2
COc1ccc(CCC(=O)N2CCN(c3ccc([N+](=O)[O-])cc3)CC2)cc1OC
 : 3.5 | 2.0 | 6.1 | 4.2 | 13.8 | 3538 | -25.8
O=C1CSC(c2cccc([N+](=O)[O-])c2)N1c1ccc(O)cc1 (centres undefined)
 : 3.3 | 0.6 | 1.4 | 4.5 | 5.2 | 2233 | -15.8
COc1ccc(NCc2nnc(SCC(=O)c3ccc(OC)cc3)n2C)cc1
 : -18.3 | 1.7 | 6.0 | -0.9 | -7.3 | 3909 | 1.7
CN(C(=O)c1ccc(OC2CCN(S(=O)(=O)N(C)C)CC2)cc1)C1CCCCC1
 : -5.6 | 1.3 | 10.8 | 6.5 | 10.3 | 3903 | -13.9
Cc1ccc(Nc2nc(N)nc(CC#N)n2)cc1
 : -5.6 | 10.0 | 5.5 | 6.8 | 4.6 | 5279 | -55.1
Cc1cc(F)c(F)c(C(=O)N2CCOCC2)c1
 : -6.3 | . | . | 5.0 | 7.5 | 4250 | -13.7
O=C(CN1C(=O)C2(OCCCO2)c2ccccc21)NCc1ccccc1
 : -1.4 | -7.3 | -0.5 | -0.5 | -2.6 | 17108* | -9.2
Cc1cc(C)cc(NC(=S)NC2CC3CCCC(C2)N3Cc2cccs2)c1 (centres undefined)
 : 3.5 | 6.8 | -7.2 | 2.3 | 33.1 | 8607 | -1.2
CC(C)c1ccc(NC(=O)CSc2nc3ccsc3c(=O)n2Cc2ccc(C(=O)O)cc2)cc1
 : -10.3 | -0.5 | -8.0 | 2.1 | 12.4 | 4322 | 1.7
O=C(NN=Cc1ccc(O)cc1)c1cc(C23CC4CC(CC(C4)C2)C3)[nH]n1
 : . | 9.4 | 4.0 | 3.8 | -11.3 | . | .
COC(=O)c1nn(-c2cccc(Cl)c2)cc(OC)c1=O
 : 2.3 | 2.0 | -2.5 | -0.7 | 7.4 | 3071 | -23.7
Cc1ccc(C)c(NS(=O)(=O)c2ccc(NC(=O)c3ccco3)cc2)c1
 : -2.6 | 4.0 | 8.6 | 4.7 | -8.6 | 3824 | -12.7

Going on with the list.
The line under a structure holds: BJeLR viability | Mtb hypoxia rep | Mtb hypoxia rep growth | Sa RN4220 lethal | Sa ugtP lethal | Bead autofluor | PrP UTR inh
CC(=O)Nc1ccc(NC(=O)c2ccccc2F)cc1
 : . | -3.1 | 3.6 | 0.5 | 0.2 | 10097 | -25.4
C=CCn1c(SCc2ccccc2)nnc1-c1cccnc1
 : -12.8 | 8.6 | 10.2 | 0.5 | 1.7 | 11166 | -14.8
CCOC(=O)CCCNC(=O)COC(=O)c1ccc(O)cc1
 : 1.0 | . | . | -3.0 | -6.8 | 5164 | -3.4
O=C(Nc1ccc(F)cc1)c1sc(Cl)nc1-c1ccccc1
 : 8.3 | 10.0 | 5.2 | 7.0 | 6.6 | 2192 | 8.9
COC(=O)[C@@]1(Cc2ccc(F)cc2)C2c3cc(C(=O)N(C)C)n(Cc4c(CO)[nH]cc(C)c4=O)c3CC2CN1C(=O)c1ccccc1 (some centres undefined)
 : . | -5.6 | -4.5 | 0.3 | -9.8 | . | .
O=C(NC1CCS(=O)(=O)C1)c1ccc(Br)o1 (centres undefined)
 : -3.6 | -2.2 | 4.6 | 2.9 | 6.6 | 3273 | -30.4
O=C(CC1C(=O)NCCN1Cc1cccc(C(F)(F)F)c1)NCCc1cnccn1 (centres undefined)
 : 9.4 | 2.5 | 4.4 | 1.8 | 2.7 | 5730 | -9.8
COc1ccc(/C=C/C(=O)NC2CCCCCCC2)cc1S(=O)(=O)N1CCOCC1
 : -8.4 | 1.4 | 1.4 | 4.0 | 0.5 | 2178 | -36.3

Two compounds picked at random from the list so far, as already listed:
The line under a structure holds: BJeLR viability | Mtb hypoxia rep | Mtb hypoxia rep growth | Sa RN4220 lethal | Sa ugtP lethal | Bead autofluor | PrP UTR inh
O=C(CC1C(=O)NCCN1Cc1cccc(C(F)(F)F)c1)NCCc1cnccn1 (centres undefined)
 : 9.4 | 2.5 | 4.4 | 1.8 | 2.7 | 5730 | -9.8
COC(=O)c1c2[n+](cc3cc(OC)c(OC)cc13)CCc1cc(OC)c(OC)cc1-2
 : 8.4 | 11.1 | 0.2 | 2.9 | 11.7 | 6103 | -6.6

Hits appear at their usual frequency; any-hit rate near 4%.
